# Source: PubChem (several laboratories)
# eIF4H inh – inhibitors of RNA binding by human eIF4H | eIF4H fluorescence polarization binding assay | inhibition, % at 35 µM | 290,000 tested, 0.94% active | AID 2012;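 active means 50% or more with normal probe brightness, or confirmed in later tests; inconclusive means above 50% with abnormal brightness, or retests that disagree; inactive means below 50% or failed in later tests; about a fifth of its hits are not listed in these tables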;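 further: calls also rest on retests at 20 µM and on dose response follow-up; 0% = protein and probe with vehicle and 100% = probe without protein; strong numbers were not always called active; many hits fall short of the cut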
# Env fusion inh – blocks HIV Env-driven cell-cell fusion; inhibition, % at 12.3 µM; 360,000 tested, 1.1% active; HeLa-JRFL Env/CEM21 cell fusion, luciferase;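 active means mean replicate inhibition score of at least 50 and every replicate individually at or above 50; inconclusive means only one of the two criteria met; inactive means mean below 50 and not all replicates reaching 50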;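 further: 0% = plate neutral controls and 100% = maraviroc near 300 nM; one replicate is shown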
# PABP polyA inh – blocks human PABP binding to poly(A) RNA; P11940; fluorescence polarization; inhibition, % at 35 µM; 290,000 tested, 1% active; AID 2014;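 active means 50% or more with normal probe brightness, or confirmed in later tests; inconclusive means above 50% with abnormal brightness, or retests that disagree; inactive means below 50% or failed in later tests; about a fifth of its hits are not listed in these tables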;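 further: calls also rest on retests at 20 µM and on dose response follow-up; controls were probe without protein and protein plus probe with vehicle; some compounds called inactive have numbers as strong as hits; many hits fall short of the cut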
# Rce1 inh – yeast Ras-converting enzyme inhibition. yeast membranes, quenched prenylated peptide cleavage fluorescence. calls only. 290,000 tested, 0.27% active;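 active means fall in fluorescence gain of 50% or more versus controls, with final raw signal at or below 3038400; inconclusive means same 50% fall but final raw signal above 3038400; inactive means fall in fluorescence gain under 50%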;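 further: plate controls were neutral control wells for no effect and wells lacking membranes for full effect; tested at 10 µM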
# Target sequence (Q03530 whole entry, looked up): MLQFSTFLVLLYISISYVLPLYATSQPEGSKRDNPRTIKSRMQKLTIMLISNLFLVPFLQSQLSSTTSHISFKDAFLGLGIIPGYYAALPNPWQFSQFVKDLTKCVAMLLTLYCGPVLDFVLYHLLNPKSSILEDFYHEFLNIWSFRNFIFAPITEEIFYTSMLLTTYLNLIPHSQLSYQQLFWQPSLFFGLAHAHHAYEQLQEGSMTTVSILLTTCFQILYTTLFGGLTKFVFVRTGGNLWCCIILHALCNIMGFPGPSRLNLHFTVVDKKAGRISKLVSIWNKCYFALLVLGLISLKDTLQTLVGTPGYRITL
# CSC inhib – blocks cancer stem cells. cancer stem cell-like cells viability, luminescence. inhibition, % at 7.5 µM. 300,000 tested, 1.1% active. AID 2717;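 active means mean at 75% or more and at least half the replicates too; inconclusive means mean and replicates disagree; tested in HMLE shEcad cells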;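 further: 0% = median of negative and 100% = median of positive control wells; the first replicate is given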
# MT1-MMP act inh – inhibitors of human MT1-MMP activation. GFP/RFP ratio change, % at 20 µM. HT1080 RFP-PRO-GFP cells, GFP/RFP ratio fluorescence, overnight; percent of plate control window, DMSO zero. P50281. 360,000 tested, 0.061% active;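 active means GFP/RFP ratio change of at least 30% with cell ATP level not reduced by more than half and red fluorescence within 50% of control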; further: strong numbers were not always called active
#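 system = RFP-PRO-GFP reporter HT1080 cells | dosing = 20 µM single dose, 1% DMSO | timing = overnight cell settling, then overnight compound exposure, 37 °C, 5% CO2 | read-out basis = GFP/RFP fluorescence ratio | controls = DMSO and RFP-L50D-GFP cell wells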
# UUG fidelity – yeast start codon fidelity modulation; S. cerevisiae UUG-firefly luciferase reporter, luminescence/redox ratio; activity score, % at 18.7 µM; 350,000 tested, 0.13% active; AID 602363;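 active means replicate mean at a twofold rise or more, about +100% in these data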;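 further: firefly luciferase made from a UUG start codon reports start codon fidelity; reporter light over untreated wells divided by growth signal over untreated wells; some hits fall short of that in this replicate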
# eIF4H inh retest – second read-out of eIF4H inh, no call of its own (marks repeat the call); inhibition, %; compound at 20 µM; confirmation average;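 mean of two retest wells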
# PABP polyA inh retest – second read-out of PABP polyA inh, no call of its own (marks repeat the call); inhibition, %; compound at 20 µM; confirmation repeats;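 mean of two retest wells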
# MT1-MMP act inh RFP – second read-out of MT1-MMP act inh, no call of its own (marks repeat the call); RFP signal change, %; measured here: RFP expression control read;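 0 = vehicle wells; hits needed this value within 50% of zero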
# The depositor's hits bear a star; i = inactive; ? = inconclusive; nt = not tested or not shown.
SMILES,eIF4H inh,Env fusion inh,PABP polyA inh,Rce1 inh,CSC inhib,MT1-MMP act inh,MT1-MMP act inh RFP,UUG fidelity,others
CC1CN(CC(=O)Nc2cc(S(=O)(=O)N3CCCC3)ccc2Cl)CC(C)O1 (configuration not stated),-2.1,2.5,33.6,i,-11.3,4.7,-4.2,nt,
O=C(NCCC1=CCCCC1)c1cc(S(=O)(=O)N2CCCCC2)ccc1Cl,nt,11.4,nt,i,-9.2,-0.4,-4.9,nt,
COC(=O)c1cc2c(=O)c3ccccc3oc2nc1C,-12.2,-35.6,0.3,i,13.7,-1.7,0.4,-16.8,
O=C(NC1CCCCC1)NC1C2CC3CC(C2)CC1C3 (configuration not stated),-8.7,4.2,-2.2,i,1.5,2.0,6.1,-5.6,
C=C(C)Cn1c2ccc(NC(=O)NCCc3ccccc3)cc2c(=O)n1C,nt,6.0,nt,nt,nt,1.6,1.9,1.4,
COc1cccc(C(=O)Nc2ccc(S(=O)(=O)Nc3nccc(C)n3)cc2)c1,-5.4,2.3,-0.6,i,-7.0,0.2,-3.3,nt,
CC1CCN(C(=O)COC(=O)/C=C/c2ccco2)CC1,nt,-16.4,nt,nt,-8.5,21.2,-0.9,4.4,
COc1cc(C(=O)Nc2nc(C)cc(C)n2)cc(OC)c1OC,7.8,17.9,3.7,i,9.1,2.6,2.7,nt,
CCOc1ccc(CCn2c(-c3ccco3)nc3ccccc3c2=O)cc1OCC,11.1,62.5*,-6.5,i,20.8,7.7,0.0,-10.8,
Cc1ccc2oc(C(=O)N(Cc3nccn3C)C(C)C)c(C)c2c1,-6.9,1.2,-13.2,i,-16.9,3.3,2.2,-11.3,
CCOC(=O)/C(=N\Nc1ccc(Br)cc1)N1CC(C)OC(C)C1 (configuration not stated),4.8,nt,15.9,i,51.5,-7.2,-3.9,-29.1,
O=C1/C(=C\c2cc(Cl)c(O)c(Cl)c2)SC(=S)N1Cc1ccccc1,?,39.9,?,i,103.5*,-43.7,58.8,-16.9,
O=C(NCc1ccccc1C(F)(F)F)C1CC(O)CN1C(=O)Nc1ccccc1 (configuration not stated),-2.2,14.4,8.5,i,-8.5,-2.6,-1.1,-7.8,
CN(C)Cc1ccc(F)cc1Sc1ccc(Cl)cc1Cl,-6.5,nt,6.4,i,21.4,-3.3,-0.7,-13.2,
CCC(=O)Nc1ccc(OCc2nc3ccccc3s2)cc1,17.3,-77.6,5.3,i,12.5,-6.7,0.5,nt,
COc1ccc(C(=O)NCc2nc3ccccc3[nH]2)cc1OC,-9.6,12.5,0.7,i,-10.5,1.9,0.2,-14.7,
COc1ccc(-c2nn(-c3ccccc3)cc2C(=O)n2nnc3ccccc32)cc1,-1.6,nt,4.0,i,nt,-2.7,-4.9,-12.0,
O=C1OCc2ccc(NC(=O)c3sccc3Cl)cc21,-7.1,3.6,-13.9,i,1.1,0.1,2.4,-20.7,
O=C(Cn1cc2c(n1)CCCC2)N1CCc2ccccc21,-1.4,-17.0,-11.9,i,19.3,7.6,2.4,-13.8,
CCCc1nnc(NC(=O)CCC(=O)Nc2ccc(Cl)cc2)s1,1.0,-1.8,1.3,i,19.3,-1.4,-2.9,-2.9,

# Not a retest: entries from further up.
SMILES,eIF4H inh,Env fusion inh,PABP polyA inh,Rce1 inh,CSC inhib,MT1-MMP act inh,MT1-MMP act inh RFP,UUG fidelity,others
CC1CN(CC(=O)Nc2cc(S(=O)(=O)N3CCCC3)ccc2Cl)CC(C)O1 (configuration not stated),-2.1,2.5,33.6,i,-11.3,4.7,-4.2,nt,
O=C(NCCC1=CCCCC1)c1cc(S(=O)(=O)N2CCCCC2)ccc1Cl,nt,11.4,nt,i,-9.2,-0.4,-4.9,nt,
COC(=O)c1cc2c(=O)c3ccccc3oc2nc1C,-12.2,-35.6,0.3,i,13.7,-1.7,0.4,-16.8,
O=C(NC1CCCCC1)NC1C2CC3CC(C2)CC1C3 (configuration not stated),-8.7,4.2,-2.2,i,1.5,2.0,6.1,-5.6,
C=C(C)Cn1c2ccc(NC(=O)NCCc3ccccc3)cc2c(=O)n1C,nt,6.0,nt,nt,nt,1.6,1.9,1.4,

# The list goes on.
SMILES,eIF4H inh,Env fusion inh,PABP polyA inh,Rce1 inh,CSC inhib,MT1-MMP act inh,MT1-MMP act inh RFP,UUG fidelity,others
CC(C)CCNC(=O)c1ccc2c(SCC(=O)O)c3c(nc2c1)CCC3,-0.9,-27.7,1.4,i,-14.7,6.3,4.1,-8.5,
O=C1c2oc3ccccc3c(=O)c2C(c2cccc(O)c2)N1CCCN1CCOCC1 (configuration not stated),3.4,-3.5,5.1,i,nt,1.9,5.9,3.5,
Cc1ccc(-c2csc(C3=C(O)CN(NC(=O)c4ccc([N+](=O)[O-])cc4)C3=N)n2)cc1,20.1,0.3,4.1,i,-3.3,-1.2,1.1,-11.2,
O=C(O)CN(c1ccccc1)S(=O)(=O)c1cc(C(F)(F)F)cc(C(F)(F)F)c1,3.4,-16.3,-8.4,i,-0.8,-4.4,-0.8,nt,
CC(=O)c1ccc(Nc2ccc([N+](=O)[O-])c3nonc23)cc1,17.6,-17.6,-16.4,i,5.3,-22.7,-5.4,-9.3,
Cn1c(=O)c2c(nc(Sc3nc4ccccc4n3CC(=O)N3CCCCC3)n2C)n(C)c1=O,-13.5,nt,-16.5,i,9.1,1.7,2.2,-16.4,
Cc1ccc(S(=O)(=O)N2CCOCC2)cc1C(=O)NCc1ccccc1CN1CCCC1,nt,nt,nt,nt,-11.2,0.8,0.0,-15.8,
COCC(=O)N(Cc1cc2cc(OC)ccc2[nH]c1=O)c1ccccc1OC,-6.2,nt,-7.4,i,-14.1,1.1,8.6,nt,
Cc1ccc(S(=O)(=O)N2CCC(=O)N2)cc1,-1.2,16.4,3.0,nt,-10.1,1.9,4.5,-16.2,
O=C(NCC1CCCN(C(=O)c2cc(Cl)ccc2F)C1)c1ccc(F)cc1 (configuration not stated),-0.2,3.2,-9.8,i,21.0,-0.9,-0.8,-14.3,
NC(=O)c1sc2nc3c(c(-c4ccco4)c2c1N)CCC3,97.0*,nt,83.2*,i,-13.1,-22.1,-5.9,-6.0,
Cc1cccc(OCC(=O)N(Cc2nnc(-c3ccccc3Cl)o2)C2CC2)c1,nt,-47.3,nt,nt,nt,1.9,1.0,-5.7,
COc1cccc(CN2CCC2(C)C(=O)Nc2ccc(Cl)c(Cl)c2)c1F (configuration not stated),nt,25.9,nt,nt,nt,-0.2,-4.5,-20.1,
CCOc1ccc(N/C=C/C(=O)c2ccccc2)c([N+](=O)[O-])c1,4.7,-234.7,11.1,i,56.1,9.5,1.5,nt,
O=C(OCC(=O)N1N=C(c2ccc(Cl)cc2)CC1c1ccco1)c1cccnc1 (configuration not stated),nt,-3.9,nt,nt,12.9,0.6,5.2,-1.3,
COc1ccccc1Cc1c(-c2ccc(OC)c(OC)c2)nc2ccc(C)cn12,nt,-8.3,nt,nt,nt,-2.2,-1.5,1.2,
O=C(O)c1ccc(N/N=C/c2cc(Br)cs2)cc1,2.4,21.2,6.8,i,-3.7,-4.1,-0.8,-52.3,
CSc1ccccc1NC(=O)COC(=O)CCC(=O)c1ccc(F)cc1,nt,-1.3,nt,nt,-0.3,-8.4,1.7,nt,
CCn1cc(C(=O)N2CCc3ccccc3C2)c(=O)c2cc(S(=O)(=O)N3CCCCC3)ccc21,-1.2,nt,-2.5,i,-2.1,nt,nt,nt,
C=CCn1c(=O)c(C(=O)Nc2ccccc2C(=O)OCC)c(O)c2ccccc21,-11.0,nt,-7.4,i,22.8,1.7,-2.1,-12.9,

# Part of the list above in order of count of non-hydrogen atoms, rising.
SMILES,eIF4H inh,Env fusion inh,PABP polyA inh,Rce1 inh,CSC inhib,MT1-MMP act inh,MT1-MMP act inh RFP,UUG fidelity,others
O=C(NCC1CCCN(C(=O)c2cc(Cl)ccc2F)C1)c1ccc(F)cc1 (configuration not stated),-0.2,3.2,-9.8,i,21.0,-0.9,-0.8,-14.3,
COc1ccccc1Cc1c(-c2ccc(OC)c(OC)c2)nc2ccc(C)cn12,nt,-8.3,nt,nt,nt,-2.2,-1.5,1.2,
Cc1ccc(S(=O)(=O)N2CCOCC2)cc1C(=O)NCc1ccccc1CN1CCCC1,nt,nt,nt,nt,-11.2,0.8,0.0,-15.8,
CCn1cc(C(=O)N2CCc3ccccc3C2)c(=O)c2cc(S(=O)(=O)N3CCCCC3)ccc21,-1.2,nt,-2.5,i,-2.1,nt,nt,nt,

# More structures.
SMILES,eIF4H inh,Env fusion inh,PABP polyA inh,Rce1 inh,CSC inhib,MT1-MMP act inh,MT1-MMP act inh RFP,UUG fidelity,others
O=C(Cc1ccccc1)NC(=S)Nc1cc(C(F)(F)F)ccc1Cl,-5.3,nt,-8.6,i,nt,6.8,5.6,-8.2,
CNS(=O)(=O)c1ccc(OC)c(-c2nnc3c4ccccc4c(C)nn23)c1,0.4,nt,6.4,i,-3.8,-1.6,2.6,-10.3,
COc1ccccc1N1CCN(C(=S)Nc2ccc3nc(N4CCOCC4)cc(C)c3c2)CC1,-4.4,4.2,5.9,i,7.1,-4.8,-6.6,nt,
N#Cc1c(-c2ccccc2)nc(SCC(=O)Nc2ccccc2F)[nH]c1=O,8.6,-6.4,-11.8,nt,9.1,1.9,-0.2,-0.5,
CC1=CC(C)(C)N2C(=O)C3(N=C(N)NC(Nc4ccccc4)=N3)c3cc(C)cc1c32 (configuration not stated),-8.7,nt,-7.8,i,2.4,1.9,1.1,-5.5,
CC1(c2nnc(-c3cccc(Cl)c3)o2)CC(c2cccc([N+](=O)[O-])c2)=NO1 (configuration not stated),-5.9,-2.8,-5.7,i,2.8,-4.8,0.4,-20.3,
COc1ccc(C2CC3(CC(C)(C)NC(=S)N3)Oc3cc(O)cc(C)c32)cc1 (configuration not stated),53.2,-201.5,1.4,i,-14.6,-2.1,-5.4,nt,eIF4H inh retest=6.1;PABP polyA inh retest=-2.2
O=[N+]([O-])c1ccc2nc(-c3ccncc3)[nH]c2c1,-5.4,-19.7,-0.4,i,-10.4,-5.8,-9.3,nt,
O=C(OCc1nc2ccccc2s1)c1ccc([N+](=O)[O-])o1,-16.2,nt,-2.4,nt,-9.2,nt,nt,19.4,
COc1ccccc1Cc1nc(-c2ccncc2)no1,3.5,-9.0,1.5,i,-6.1,1.6,-8.5,nt,
CCN(CC)S(=O)(=O)c1ccc(NC(=O)CSc2nnc(-c3ccc(F)cc3)o2)cc1,-11.4,-8.6,-11.8,i,2.7,-3.8,-3.9,-19.1,
CC(C)NC(=O)C1(C)CCN1C(=O)Cc1ccc(-c2ccccc2)cc1 (configuration not stated),nt,8.5,nt,nt,nt,4.7,-9.0,1.7,
CC(=O)OCc1c(C(F)(F)F)nn(C)c1Oc1cccc(C(F)(F)F)c1,4.2,-26.2,0.9,i,5.2,0.7,-0.3,-17.4,
CC(C)c1c(C(=O)N/N=C/C=C/c2ccccc2)nnn1-c1nonc1N,-7.1,-2.6,11.4,i,-15.4,5.7,0.7,-9.4,
CCOc1ccccc1N1CCN(C(=O)CSc2ccc3c(c2)OCCO3)CC1,nt,-1.6,nt,nt,nt,3.9,-0.2,-9.7,
COCCOC(=O)CSc1ncccc1-c1nc2cc(C)c(C)cc2[nH]1,-3.0,-58.3,6.7,i,20.7,-3.7,9.6,-17.3,
O=c1c(-c2ccnn2-c2ccc(F)cc2)cnc2n1CCS2,-2.0,11.5,-2.3,i,2.4,-1.5,4.1,0.5,
c1ccc2c(c1)Nc1cc3ccccc3cc1S2,13.1,-28.8,6.6,i,-15.0,2.1,1.7,nt,
